Bioassay records (PubChem)
Rango complex inh: inhibitors of Rango-importin beta complex formation. Potency, µM (titrated, usually from 92.2 µM), inactives show top-dose inhibition of complex formation. 340,000 compounds, 0.031% hits. Rango CFP/YFP FRET sensor + importin beta, 45 min. AID 540263; active = rising FRET ratio curve, often small or poorly fitted; inconclusive = mostly compound fluorescence or quenching in the first reads; inactive = flat curves in all reads;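 note: potency is the fitted concentration of half-maximal effect; 0% = DMSO wells and 100% = buffer wells lacking importin beta; nearly all actives have a fitted effect of over 15% in size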
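Inhibition scored from the CFP 486 nm/YFP 530 nm FRET ratio 45 min after adding 0.125 microM importin beta to 50 nM Rango biosensor preincubated 5 min with compound (room temperature, PBS with DTT, Tween-20, BSA). No-importin wells as positive control.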
Rango dissoc inh: inhibitors of RanGTP-induced Rango-importin beta complex dissociation; O95149+P62826; Biochemical FRET Rango-importin beta, RanGTP-induced dissociation; Potency, µM (doses to about 46.1 µM), inactives show at the highest dose activity change, negative = inhibition; 340,000 compounds, 0.071% hits; active means falling FRET ratio curve, often poorly fitted, with flat reads before Ran was added; inconclusive means other falling curves, or compound fluorescence or quenching; inactive means flat or rising ratio curve;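 note: potency is the fitted concentration of half-maximal effect; % of control where 0% means no effect; nearly all actives have a fitted effect of over 45% in size; -100% = wells without RanGTP and RCC1; the record marks most hits as doubtful in a second field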
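Rango (0.1 uM)–importin beta (0.25 uM) complex; RanGTP-RCC1 trigger; 45 min RT; CFP/YFP FRET read.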
GLA inh pH 4.5: inhibitors of human alpha-galactosidase A at pH 4.5. purified enzyme, 4-MU-alpha-Gal fluorescence, pH 4.5. activity change, negative = inhibition, % at 105 µM. 230,000 tested, under 10 active. AID 1467; inconclusive = small, poorly fitted or top-dose-only inhibition, or a rising curve; inactive = flat fitted curve, though single readings scatter; no compound was filed as active;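 note: 0% = full activity with enzyme and -100% = basal without enzyme; dose as in the result columns while the protocol names 77 µM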
Target sequence (P06280 whole entry, looked up): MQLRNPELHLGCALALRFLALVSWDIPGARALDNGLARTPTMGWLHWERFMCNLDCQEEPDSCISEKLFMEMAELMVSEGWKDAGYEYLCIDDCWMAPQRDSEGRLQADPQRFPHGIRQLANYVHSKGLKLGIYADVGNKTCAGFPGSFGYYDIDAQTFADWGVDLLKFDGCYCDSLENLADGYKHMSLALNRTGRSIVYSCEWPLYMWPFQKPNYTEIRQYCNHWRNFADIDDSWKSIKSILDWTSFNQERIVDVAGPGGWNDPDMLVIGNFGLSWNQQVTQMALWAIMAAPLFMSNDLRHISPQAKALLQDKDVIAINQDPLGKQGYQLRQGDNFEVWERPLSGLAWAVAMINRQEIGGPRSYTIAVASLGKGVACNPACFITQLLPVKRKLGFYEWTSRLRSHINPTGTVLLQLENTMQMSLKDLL
miR-21 reporter: miR-21 reporter, rising signal; HeLa miR-21 FLuc reporter, luciferase, 48 h; Potency, µM (titrated, usually from 38.3 µM), without a hit: at the highest dose reporter change, positive = more light; 340,000 tested, under 10 active; AID 2288; active = well fitted rising curve with a large enough effect; inconclusive = small, poorly fitted or top-dose-only effect; inactive = no such curve, though single readings can be large or run the other way;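 note: % of control where 0% means no effect; miR-21 action dims this reporter so a rising signal means less miR-21 action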
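HeLa miR-21-FLuc reporter line, endogenous miR-21; 2000 cells/well in DMEM/10% FBS; compound titration up to ~40uM final, 48 h, 37 degree Celsius; luciferase detection reagent, 15 min lysis, CCD luminescence.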
* = called active by the depositor; ? = inconclusive; . = no result given. These rows are one share of the data (hit frequency here may not be typical).

Screens in order – Rango complex inh, Rango dissoc inh, GLA inh pH 4.5, miR-21 reporter
CCCOc1ccc(N2C(=O)CC(N3CCCC(C(=O)N4CCCC4)C3)C2=O)cc1 (stereo unspecified)
    1.8%, 4%, 4, -4%
O=C(NCCO)c1cccc2c1-c1ccccc1C2=O
    -2.8%, 5%, -4, -4%
COc1ccc(C2C(C#N)=C(N)Oc3c2oc(CO)cc3=O)cc1 (stereo unspecified)
    -4.2%, 1%, 7, 6%
Cc1ccc(NC(=O)COC(=O)c2nn(C)c(=O)c3ccccc23)cc1F
    -1.0%, -6%, ., .
C[C@H](CO)N1C[C@H](C)[C@@H](CN(C)C(=O)Nc2ccccc2)Oc2ccc(NC(=O)Nc3ccc(C(F)(F)F)cc3)cc2C1=O
    7.5%, 9%, ., .
Cc1n(-c2ccccc2)c2ccc(Cl)cc2[n+]1CCO
    1.6%, 9%, 4, -2%
O=C1CCCc2ccccc2N1Cc1cccc(F)c1
    -3.4%, 2%, -8, -3%
O=C(Nc1cccc([N+](=O)[O-])c1)NN1CCCCCC1
    -3.7%, 1%, ., .
O=[N+]([O-])c1ccc(C=NN2CCCCCC2)cc1
    2.4%, 0%, ., .
COc1ccc(Br)cc1C1Nc2ccccc2C(=O)N1NC(=O)c1ccncc1 (stereo unspecified)
    -1.2%, 11%, -13, 27%
COc1ccc(-c2nc3ccccc3c(C(=O)Nc3ccc(S(=O)(=O)Nc4cc(C)on4)cc3)c2C)cc1
    -0.3%, 1%, -4, ?
CN(c1ccccc1)c1nc(N)c([N+](=O)[O-])c(Nc2ccc(F)cc2)n1
    0.6%, -10%, ., 0%
Cc1cccc(NC(=O)CSc2nc3ccccc3o2)c1
    6.0%, 7%, -1, -44%
Cc1ccc(NC(=O)c2ccco2)c(NC(=O)c2ccccc2)c1
    3.2%, 0%, ., 2%
CCN1C(=O)c2ccccc2S(=O)(=O)c2ccc(C(=O)NCC(OC)OC)cc21
    0.6%, 2%, ., -3%
CCSc1nnc(NC(=O)C(C(F)(F)F)C(F)(F)F)s1
    0.8%, 6%, 5, 0%
OCCN(Cc1ccccc1)c1ncnc2sccc12
    ?, ?, ., 8%
Cc1ccc(-n2nc(C)c3c(C)c(CCC(=O)NCC4CCCO4)c(=O)n(C)c32)cc1 (stereo unspecified)
    1.5%, 9%, ., -1%
Cc1noc(C)c1CSc1nc2ccccc2nc1NS(=O)(=O)c1ccc(Cl)cc1
    -0.5%, -1%, -6, 4%
CCOC(=O)c1c(-c2ccc(-c3ccccc3)cc2)csc1NC(=O)c1cccc(N2C(=O)CCC2=O)c1
    -1.0%, 2%, -1, 2%
CCN(CC(=O)NCc1cccs1)C(=O)c1ccc(-c2ccc(F)cc2)o1
    3.1%, -5%, ., .
NC(=O)N1CCCC1C(=O)Nc1ccc(Cl)c(Cl)c1 (stereo unspecified)
    -0.3%, -2%, 4, 2%
c1ccc2c(NCC3CCCO3)nc(-c3ccncc3)nc2c1 (stereo unspecified)
    1.0%, 0%, 0, 4%
CCO[C@@H]1OC(C(=O)N2CCN(Cc3ccc4c(c3)OCO4)CC2)=C[C@H](c2cn(C(C)=O)c3ccccc23)[C@H]1CCCO
    -4.5%, -27%, -1, 11%
CCOC(=O)c1ccc(-c2ccc(/C=N/NC(=O)Cc3nnc(N)s3)o2)cc1
    -0.5%, 3%, 4, -41%
CCOc1ccccc1N=Nc1c(C)[nH]n(C(N)=S)c1=O
    2.7%, 1%, ., -7%
Cc1[nH]c2ccccc2c1C(=O)C(=O)NCC1CCCO1 (stereo unspecified)
    5.5%, 3%, 1, -4%
O=C(CCc1ccccc1)N=C1SC2CS(=O)(=O)CC2N1c1ccccc1 (stereo unspecified)
    -0.5%, 25%, ., -2%
COc1ccccc1NC(=O)c1cc(Sc2nncn2C)nc2ccccc12
    2.4%, 0%, 10, 13%
O=C(CSc1nnc(-c2ccccc2O)o1)N1CCc2ccccc2C1
    1.7%, 23%, -8, -1%

Other structures:
Screens in order – Rango complex inh, Rango dissoc inh, GLA inh pH 4.5, miR-21 reporter
Nc1n[nH]c(N)c1N=Nc1ccccc1
    -2.5%, -4%, -3, -11%
COc1ccc(OCC(O)CN2CCc3ccccc3C2)cc1 (stereo unspecified)
    2.9%, 4%, ., -2%
Cc1noc(C)c1CSCC(=O)Nc1cc(S(=O)(=O)N2CCOCC2)ccc1OCC(F)(F)F
    0.4%, 0%, ., .
COc1ccc(NC(=O)CNC(=O)c2c(C)nn(C)c2Cl)cc1
    -13%, 2%, -29, -3%
CN(C)C(CNC(=O)c1cccc(S(=O)(=O)Nc2ccc(SC(F)F)cc2)c1)c1ccccc1 (stereo unspecified)
    -0.9%, -7%, ., .
COCCN(Cc1cc2ccc(C)cc2n2nnnc12)Cc1nnnn1C(C)(C)C
    1.7%, -6%, 5, -7%
COc1ccc2c(Cl)c(C(=O)N/N=C/c3ccc4c(c3)OCO4)sc2c1
    5.7%, 2%, 6, 0%
CCOC(=O)N1CCN(C(=O)COC(=O)CN(C)S(=O)(=O)c2ccc(NC(C)=O)cc2)CC1
    -0.4%, 4%, ., 0%
CC1(C)CC2CC(C)(CN2C(=O)C23CCC(C)(C(=O)O2)C3(C)C)C1 (stereo unspecified)
    0.8%, 9%, 9, -1%
COc1ccc(C(=O)NCc2ccccc2CN2CCCC2)cc1S(=O)(=O)Nc1ccc(C)cc1
    2.4%, -1%, ., .
Cc1ccccc1OCCC(=O)OCC(=O)NC(C)c1ccccc1 (stereo unspecified)
    -1.4%, -1%, -1, 0%
COC(=O)CSc1ncnc2c1sc1nc3c(cc12)COC(C)(C)C3
    -0.3%, -6%, 1, 0%
Cc1ccccc1C(=O)Nc1cccc(-c2cn3ccccc3n2)c1
    0.5%, -6%, 3, 0%
O=C1NN=C(c2ccc(Cl)cc2)CC1c1cccc(Br)c1 (stereo unspecified)
    -1.5%, -25%, -2, 9%
Cc1noc(C)c1S(=O)(=O)Nc1cccc(C(F)(F)F)c1
    3.2%, 0%, ., 8%
O=C(NCCCN1CCOCC1)c1onc(CSc2ccccn2)c1C(=O)NCCCN1CCOCC1
    -0.2%, -1%, ., .
COc1ccc(-c2csc(NC(=O)C3=COCCO3)n2)c(OC)c1
    -1.3%, -10%, ., .
COc1cccc(/C=N/NC(=O)c2c(C)nc3ccc(Br)cn23)c1O
    ?, ?, -7, 17%
CCn1c(SCc2nc3scc(-c4ccccc4)c3c(=O)[nH]2)nnc1-c1ccc(Cl)cc1
    -2.9%, -6%, 3, -1%
CSc1cccc(NC(=O)COc2ccccc2)c1
    1.7%, 21%, -5, -33%
Cc1cc(C)n2c(SCC(=O)NCc3ccc4c(c3)OCO4)nnc2n1
    6.1%, -3%, -4, 0%
O=C(CNc1ccc(Br)cc1)c1ccc(Br)s1
    -0.9%, -13%, ., -34%
O=C1C=C(c2ccc3c(c2)oc2ccccc23)C[C@@H](c2ccc(Cl)cc2)C1
    5.6%, 1%, ., .
COCCN(C(=O)COC(=O)CCc1ccccc1)c1c(N)n(Cc2ccccc2)c(=O)[nH]c1=O
    ?, -9%, ., .
O=C1CC(c2ccc(F)cc2)CC2=C1C=Nc1ccccc1N2 (stereo unspecified)
    0.9%, -13%, -16, 10%
CCc1nc2ccccc2n1CC(=O)N(C(C)CC)C1CCS(=O)(=O)C1 (stereo unspecified)
    1.8%, -16%, -1, 1%
Cc1onc(-c2ccccc2Cl)c1C(=O)NCCn1c(C)cc2ccccc21
    ?, ?, ., 8%
COc1ccccc1[C@@H]1C(c2cccc(Cl)c2)=NN(c2ccccc2)[C@H]1C(=O)N1CCOC1=O
    ?, ?, ?, -2%
Cc1ccc(C(=O)Nc2ccc(N3CCN(S(C)(=O)=O)CC3)cc2)cc1C
    1.5%, -15%, -5, -3%
C#CCOCCOCCOCCNc1nc(N2CCOCC2)nc(N2CCN(C(=O)[C@H](Cc3cc4ccccc4[nH]3)n3cc([C@@H](N)Cc4ccc(O)cc4)nn3)CC2)n1
    5.1%, -3%, -1, 4%

(more compounds)
Screens in order – Rango complex inh, Rango dissoc inh, GLA inh pH 4.5, miR-21 reporter
COc1ccc(-n2c(Cc3cccn3C)nnc2SCC(=O)Nc2ccccc2F)cc1
    1.7%, -10%, 6, -11%
O=C(NCc1ccccc1Cl)c1ccccc1Oc1ccccc1
    5.2%, 1%, -1, -7%
Cc1cc(NC(=O)c2ccco2)ncc1NC(=O)CCc1ccccc1
    -2.2%, -15%, 0, -26%
COc1ccccc1S(=O)(=O)Nc1cc(S(=O)(=O)N2CCCCC2)ccc1N1CCOCC1
    -2.4%, -1%, 3, 3%
COC(=O)c1c(NC(NC(=O)c2ccccc2)(C(F)(F)F)C(F)(F)F)sc2c1CCN(C)C2
    ?, -24%, 2, -4%
CC(=O)Nc1coc2ccc(Br)cc12
    -3.5%, 24%, -5, 11%
COc1ccccc1-c1noc(CCC(=O)Nc2cccc(C)c2)n1
    0.4%, 15%, -1, -10%
O=C(CSc1cn(Cc2ccccc2)c2ccccc12)N1CCOCC1
    1.7%, -17%, 1, -48%
CCc1cccc(CC)c1NC(=S)NCC(c1cccnc1)N1CCOCC1 (stereo unspecified)
    -1.0%, -7%, 6, -1%
O=C(N=C1SC2CS(=O)(=O)CC2N1Cc1ccccc1)C1CCCO1 (stereo unspecified)
    -3.1%, -2%, ., -1%
O=C(OCc1nnc(-c2ccccc2)o1)c1ccc([N+](=O)[O-])o1
    -0.4%, 8%, ., .
CCc1ccc(NC(=O)C2CCN(c3c(N4CCCC4)c(=O)c3=O)CC2)cc1
    -1.3%, -6%, ., -1%
O=C(COC(=O)C1CC(=O)N(c2ccc3c(c2)OCCO3)C1)NC1CCCc2ccccc21 (stereo unspecified)
    0.7%, -13%, 1, 0%
O=C(O)CN1CCN(Cc2ccc(F)cc2Cl)C1=O
    -0.6%, -15%, 1, -3%
CC(=O)C(Sc1nn(C)c(=S)s1)C(=O)Nc1ccccc1 (stereo unspecified)
    2.9%, 5%, -3, -50%
CN1CCN(c2ccc(Cl)cc2NC(=O)/C=C/c2ccc(F)cc2)CC1
    2.0%, 5%, -12, 18%
COc1ccc(OC)c(-c2csc(NC(=O)c3ccccc3F)n2)c1
    -1.4%, 12%, ., -17%
CCOc1ccc(C(=O)Nc2ccc(N3CCN(C(=O)c4ccco4)CC3)cc2)cc1Br
    -3.4%, 5%, ., .
CC(=O)c1ccc(NC(=O)C(C)OC(=O)COc2ccc(C#N)cc2)cc1 (stereo unspecified)
    -3.3%, -15%, 0, -3%
OC1CCCN(Cc2nc(Cc3ccccc3Cl)no2)C1 (stereo unspecified)
    3.1%, 0%, 0, -18%
CN(C)c1nc(Nc2ccccc2)nc(N(C)C)n1
    -1.9%, 3%, 5, -1%
CCOC(=O)C1(Cc2cccc(OC)c2)CCN(Cc2cccn2-c2nccs2)CC1
    -0.6%, 11%, -1, 11%

Four entries out of the list above, ordered by their value in Rango complex inh, high to low:
| structure | Rango complex inh | Rango dissoc inh | GLA inh pH 4.5 | miR-21 reporter |
| --- | --- | --- | --- | --- |
| O=C(NCc1ccccc1Cl)c1ccccc1Oc1ccccc1 | 5.2% | 1% | -1 | -7% |
| CC(=O)C(Sc1nn(C)c(=S)s1)C(=O)Nc1ccccc1 (stereo unspecified) | 2.9% | 5% | -3 | -50% |
| CCc1ccc(NC(=O)C2CCN(c3c(N4CCCC4)c(=O)c3=O)CC2)cc1 | -1.3% | -6% | . | -1% |
| COc1ccc(OC)c(-c2csc(NC(=O)c3ccccc3F)n2)c1 | -1.4% | 12% | . | -17% |

Nothing new here: five of the compounds above.
Screens in order – Rango complex inh, Rango dissoc inh, GLA inh pH 4.5, miR-21 reporter
COc1ccc(-n2c(Cc3cccn3C)nnc2SCC(=O)Nc2ccccc2F)cc1
    1.7%, -10%, 6, -11%
O=C(NCc1ccccc1Cl)c1ccccc1Oc1ccccc1
    5.2%, 1%, -1, -7%
Cc1cc(NC(=O)c2ccco2)ncc1NC(=O)CCc1ccccc1
    -2.2%, -15%, 0, -26%
COc1ccccc1S(=O)(=O)Nc1cc(S(=O)(=O)N2CCCCC2)ccc1N1CCOCC1
    -2.4%, -1%, 3, 3%
COC(=O)c1c(NC(NC(=O)c2ccccc2)(C(F)(F)F)C(F)(F)F)sc2c1CCN(C)C2
    ?, -24%, 2, -4%
